VDR inh: Inhibitors of the vitamin D receptor (VDR): qHTS | Vitamin D3 receptor (Homo sapiens), P11473 | VDR-SRC2-3 peptide fluorescence polarization, 2 h | Potency, µM, for the others: max response, negative = inhibition, actives largely listed as inhibitors | 400,000 compounds, 0.93% hits; active means well fitted inhibition curve with a large enough effect; inconclusive means small, poorly fitted or top-dose-only effect, or another doubt; inactive means no such curve, though single readings can be large or run the other way; further: series mostly up to about 120 µM
Target sequence (P11473 whole entry, looked up): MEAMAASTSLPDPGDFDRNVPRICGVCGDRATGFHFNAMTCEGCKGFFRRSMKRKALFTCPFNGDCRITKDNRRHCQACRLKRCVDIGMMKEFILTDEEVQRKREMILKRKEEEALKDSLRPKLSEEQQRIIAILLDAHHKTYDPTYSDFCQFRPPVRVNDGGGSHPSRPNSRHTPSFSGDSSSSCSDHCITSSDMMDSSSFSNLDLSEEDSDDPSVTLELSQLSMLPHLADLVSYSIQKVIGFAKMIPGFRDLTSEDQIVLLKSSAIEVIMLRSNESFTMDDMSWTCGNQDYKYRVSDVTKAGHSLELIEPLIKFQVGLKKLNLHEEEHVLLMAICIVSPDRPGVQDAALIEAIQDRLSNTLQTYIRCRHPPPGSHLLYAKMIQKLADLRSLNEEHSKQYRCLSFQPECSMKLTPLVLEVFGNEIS
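Fluorescence polarization assay of small-molecule disruption of VDR binding to coregulator peptide SRC2-3. Compounds and controls pin-transferred, then read after 2 h incubation at ambient room temperature.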
* hit, by the source's call; ? = inconclusive; & = joins results of further samples. On the % scale 0 is the no-effect control and ±100 the full control effect; potency means the concentration at half of the fitted maximal effect. These rows are one share of the data; the hit share may differ from the screen's.

no.	VDR inh	Molecule
1	-2%	CSc1nc2cc(C)nn2c(-c2ccccc2)c1C#N
2	7%	O=C(Nc1ccc2c(c1)OCO2)N1CCN(c2cccc(C(F)(F)F)c2)CC1
3	-3%	COc1ccc(-c2nn(-c3ccccc3)cc2C(N)=O)cc1OC
4	-7%	CC(C)c1ccc(NC(=O)C(c2ccccc2)N2CC(=O)Nc3ccccc32)cc1 (stereo not given)
5	11%&-5%	O=C(COc1ccccc1Cl)Nc1nnc(S(=O)(=O)N2CCCCCC2)s1
6	-11%	Nc1cccc(Oc2c(F)c(F)c(Oc3cccc(N)c3)c(F)c2F)c1
7	7%	CCC1=Nc2cc(C(=O)NCCCN3CCOCC3)ccc2Sc2ccc(Br)cc21
8	2%	COc1ccccc1C(=O)COC(=O)Cc1c[nH]c2ccccc12
9	-8%	CCCCN1C(=O)N(C)C2C1N(C)C(=O)N2CCCC (stereo not given)
10	1%	O=C(c1ccc(Br)s1)N(Cc1cccnc1)c1nc2ccc(F)cc2s1
11	-9%	COc1cccc(-c2ccc(SCC(=O)NC3CCCCC3)nn2)c1
12	-9%	COc1ccc(CCNC(=O)C2CCN(S(=O)(=O)c3cccc4cccnc34)CC2)cc1OC
13	-3%&-14%	COc1ccc(C2/C=C\CN(C(=O)Oc3ccccc3)CC(=O)N2Cc2ccc(F)cc2)cc1 (stereo not given)
14	79µM*	CCOC(=O)c1c(-c2ccc(C)s2)csc1N
15	-8%	CN(C)C(=O)c1ccc(-c2ccc3ncnc(Nc4ccc(F)cc4)c3c2)cc1
16	-18%	CCc1cccc(CC)c1NC(=O)c1cccc(S(=O)(=O)N2CCN(C)CC2)c1
17	22%	O=C(COc1cc(Cl)ccc1Cl)Nc1ccc2[nH]c(=O)[nH]c2c1
18	15%	COc1ccc(CCNC2CC(=O)N(CCc3ccccc3)C2=O)cc1OC (stereo not given)
19	-15%	Cc1ccc(C)c(-c2csc(NC(=O)c3cnccn3)n2)c1
20	-4%	O=c1c2cc(Br)ccc2nc(-c2ccc([N+](=O)[O-])cc2)n1O

Of the compounds above, these have an aryl methoxy group:
no.	VDR inh	Molecule
3	-3%	COc1ccc(-c2nn(-c3ccccc3)cc2C(N)=O)cc1OC
8	2%	COc1ccccc1C(=O)COC(=O)Cc1c[nH]c2ccccc12
11	-9%	COc1cccc(-c2ccc(SCC(=O)NC3CCCCC3)nn2)c1
12	-9%	COc1ccc(CCNC(=O)C2CCN(S(=O)(=O)c3cccc4cccnc34)CC2)cc1OC
13	-3%&-14%	COc1ccc(C2/C=C\CN(C(=O)Oc3ccccc3)CC(=O)N2Cc2ccc(F)cc2)cc1 (stereo not given)
18	15%	COc1ccc(CCNC2CC(=O)N(CCc3ccccc3)C2=O)cc1OC (stereo not given)

Going on with the list.
no.	VDR inh	Molecule
21	-3%	Cc1cccc(OCC(=O)Nc2cccc(C(=O)Nc3ccccc3C(=O)O)c2)c1
22	-10%&0%	CCOc1ccc(CNC(=O)Cn2ccc3cc(S(=O)(=O)N4CCCCCC4)ccc32)cc1
23	4%	COCCCn1c(SCC(=O)Nc2oc(C)c3c(C)n[nH]c(=O)c23)nc2ccccc2c1=O
24	-2%	CCCCCCCCCCCCCCCCCCOC[C@@H](O)COP(=O)([O-])OCC[N+](C)(C)C
25	9%	CCCCN(C(=O)/C=C/c1ccc(OCC(C)C)c(OCC)c1)c1c(N)n(CCC)c(=O)[nH]c1=O
26	10%	Cc1ccc(C(=O)NC(C)C2CCCO2)o1 (stereo not given)
27	-10%	CC(C)CNS(=O)(=O)c1cc(C(=O)O)c(Cl)cc1Cl
28	8%	C[C@@H](NC(=O)c1coc(=O)c(Br)c1)c1ccccc1
29	-7%	Cc1cc(=O)c(C(=O)O)nn1-c1ccccc1[N+](=O)[O-]
30	-11%	CCOC(=O)N1CCN(c2cccc(C)c2C)CC1
31	-13%	Cc1ccc(Nc2c(-c3cccc(Cl)c3)nc3cccc(C)n23)cc1
32	-13%	Cc1ccc(NC(=O)C2CC(=O)n3c(nc4ccccc43)N2)cc1Cl (stereo not given)
33	-8%	Cc1ccc(-c2cc(C(=O)NCCCN3CCOCC3)c3ccccc3n2)cc1C
34	?	CCCCOc1[nH]c2nc(-c3ccco3)n(Cc3ccco3)c(=N)c2c1C#N
35	-1%	COC(=O)c1ccc(C(=O)OC)c(NC(=O)CSCC(=O)O)c1
36	7%	CCn1cc(C(=O)NC2CCCC2)c(=O)c2cc(S(=O)(=O)N3CCOCC3)ccc21
37	-5%	CC(=O)c1ccc(NC(=O)CSc2nc(=O)n(Cc3ccccn3)c3c2CCC3)cc1
38	11%	Cc1c(CN(C)C(=O)c2ccc(Br)o2)cnn1C
39	1%	Cc1cc(C)cc(NC(=O)C2CCC(CNS(=O)(=O)c3ccc4c(c3)C(C)(C)C(=O)N4C)CC2)c1 (stereo not given)
40	-6%	CCOc1ccc2nc(N/C(N)=N/C(=S)Nc3cccc(C)c3)nc(C)c2c1

Taken from above.
`CCOc1ccc2nc(N/C(N)=N/C(=S)Nc3cccc(C)c3)nc(C)c2c1` – VDR inh = -6%
`Cc1c(CN(C)C(=O)c2ccc(Br)o2)cnn1C` – VDR inh = 11%
`Cc1ccc(Nc2c(-c3cccc(Cl)c3)nc3cccc(C)n23)cc1` – VDR inh = -13%
`Cc1cccc(OCC(=O)Nc2cccc(C(=O)Nc3ccccc3C(=O)O)c2)c1` – VDR inh = -3%

Pulled by structure from above (two):
no.	VDR inh	Molecule
31	-13%	Cc1ccc(Nc2c(-c3cccc(Cl)c3)nc3cccc(C)n23)cc1
29	-7%	Cc1cc(=O)c(C(=O)O)nn1-c1ccccc1[N+](=O)[O-]

Other records follow:
no.	VDR inh	Molecule
41	0%	COc1ccc(NC(=O)C2CCCN(S(=O)(=O)c3ccc4[nH]c(=O)ccc4c3)C2)cc1Cl (stereo not given)
42	-3%	CCN(CC)CCOC(=O)c1ccc(N/C=C(/C#N)c2nc(-c3cccc(OC)c3)cs2)cc1
43	-9%	CC(C)C(=O)Nc1cccc(NC(=O)CCN2C(=O)c3ccccc3S2(=O)=O)c1
44	5%	COc1cccc(OCC(=O)Nc2c3c(nn2-c2ccc(F)cc2)CS(=O)(=O)C3)c1
45	11%	O=C(NCCS(=O)(=O)NCc1ccc(F)cc1)c1ccc2c(c1)OCO2
46	-11%	C(#CCN1CCOCC1)COCCCOC(c1ccccc1)c1ccccc1
47	-1%	O=C(CSCc1nc2ccccc2[nH]1)Nc1ccccc1
48	-7%	COc1ccccc1N1CCN(C2CCCN(C(=O)CN3CCCC3=O)C2)CC1 (stereo not given)
49	-12%	CCOC(=O)c1ccn(-c2nc(-c3cccc(OC)c3)cc(C(F)(F)F)n2)n1
50	4%	Cc1ccccc1C(=O)c1cccn1CC(=O)NC1CCCC(C)C1C (stereo not given)
51	12%	NS(=O)(=O)c1ccc(NC(=O)COC(=O)C2CCCCC2)cc1
52	?	CC1=CC(=O)N(c2cccc(C(F)(F)F)c2)C1c1ccc(Cl)cc1 (stereo not given)
53	-9%	CCN(CC)c1ccc(NC(=S)NC(=O)C2CCC2)cc1
54	-8%	CCn1nnnc1NCc1ccc(Cl)cc1
55	5%	CCOc1ccc(-c2c(C)nn3c(C)c(C(=O)Nc4ccccc4C(=O)OC)cnc23)cc1OCC
56	21%	COCCCNC(=O)c1c[nH]c2ccc(S(=O)(=O)N3CCc4ccccc43)cc2c1=O
57	-19%&0%	CCc1cccc(C)c1NC(=O)Cn1nc(C)n2cccc2c1=O
58	35µM*	O=C(O)CCN1C(=O)/C(=C\c2cccc(Oc3ccccc3)c2)SC1=S
59	7%	CC(O)c1nc2ccccc2n1C1CCCCC1 (stereo not given)
60	8%	CCOC(=O)Cc1csc(NC(=O)CSc2nnnn2-c2ccc(CC)cc2)n1
61	-19%	Cn1c(SCCN2CCCC2)nnc1C1CCN(S(=O)(=O)c2cccc(F)c2)CC1
62	15%	Cn1cnc2cc(NCc3ccccc3Cl)ccc21
63	1%	O=C(CCCN1C(=O)c2cccc3cccc(c23)C1=O)N1CCN(c2ccccn2)CC1
64	-5%	Cc1cccc2sc(NC(=O)Cn3cccc3)nc12
65	17%	Cc1cc(-n2c(C)nc3ccccc3c2=O)ccc1NC(=O)C(F)(F)F
66	-3%	OCCN1CCN(C(=S)NC2CCCC2)CC1
67	-21%	O=C(NCc1ccc2c(c1)OCO2)c1cc(F)c(F)cc1Cl
68	-6%	Cc1ccc2nc(-c3cccc(Br)c3)cc(C(=O)NC3=NCCS3)c2c1
69	5%	N#Cc1cccc(NC(=O)COC(=O)c2cc(S(=O)(=O)Nc3ccccc3Cl)ccc2O)c1
70	-9%	Cc1c(C(=O)NCc2n[nH]c(=S)n2-c2ccc(F)cc2)cccc1[N+](=O)[O-]
71	-3%	CCOC(=O)c1sc(NC(=O)c2ccncc2)nc1C
72	5%	CN1CCN(CC(=O)Nc2nc(-c3ccccc3)cs2)CC1
73	-19%	CCCCNS(=O)(=O)c1ccc(OC)c2ncccc12
74	-13%	Cc1nc(C)c(C(=O)O)c(-c2ccsc2)c1C(=O)O
75	6%	COc1ccccc1NC(=S)N1CCCC1
76	-6%	CSC1=NC2(C)CCCCC2C12C=CC(=O)C=C2 (stereo not given)
77	-4%	COc1ccccc1CCN=C(N)NS(=O)(=O)c1ccc(C)cc1
78	3%	O=C(NC1CCCCC1)C(c1ccncc1)N(Cc1ccc2c(c1)OCO2)C(=O)c1cnsn1 (stereo not given)
79	-7%	N#CC1(NC(=O)CSc2nc3ncc(Cl)cc3[nH]2)CCCCC1
80	2%	Cc1cc(C)cc(NC(=O)CN2C(=O)NC(C)(c3ccccc3)C2=O)c1 (stereo not given)
81	-2%	C/C(=N/NC(=O)c1ccco1)c1cccc(NC(=O)c2ccc(C)o2)c1
82	16%	CC(C)(C)OC(=O)N1CCC(c2c(C(=O)NCCN3CCOCC3)cnn2-c2cccc(Cl)c2)CC1
83	-3%	Cc1cccc2sc(NC(=O)c3ccc(NS(=O)(=O)c4cccs4)cc3)nc12
84	5%	O=C(NCCc1ccccc1)C1CCN(Cc2cc3ccccc3n2Cc2ccccc2)CC1
85	4%	CCC(=O)N1CCc2cc(Br)cc(S(=O)(=O)N3CCCC(C(=O)NC(C)(C)C)C3)c21 (stereo not given)
86	-10%	Cc1[nH]c2ccccc2c1/C=N/NC(=O)CNC(=O)c1ccc2c(c1)OCO2
87	9%	O=[N+]([O-])c1nn(-c2ccccc2)n(O)c1=NC1CCN(Cc2ccccc2)CC1
88	-1%	CS(=O)(=O)Nc1ccccc1C(=O)Nc1cc2c(cc1C(=O)O)OCCCO2
89	-3%	CCCn1c(=O)cc(N)n(-c2ccc(OC(F)(F)F)cc2)c1=O
90	4%	CCOc1ccc(OCC)c(NC(=O)C2CCN(S(=O)(=O)c3cnc[nH]3)CC2)c1
91	8%	C[N+](C)(C)CCCNC(=O)c1ccc(/C=N/O)nc1
92	-6%	c1ccc(CCc2ccccc2-c2nc(-c3cccnc3)no2)cc1
93	5%	CC(C)[C@H](NC(=O)c1cccc(S(=O)(=O)N2CCOCC2)c1)C(=O)Nc1nc2ccccc2s1
94	-4%	COc1ccc(CCN(C)C2CCCN(C(=O)c3sccc3C)C2)cc1OC (stereo not given)
95	11%	CN(C)CCNC(=S)Nc1ccccc1Cl
96	14%	O=C(c1ccc2c3c(cccc13)CC2)C1CCCN(Cc2ccc(OCCO)cc2)C1 (stereo not given)
97	9%	O=C(Cn1cnc2scc(-c3ccc(F)cc3)c2c1=O)N1CCOCC1
98	-21%	Cc1c(Cl)cccc1NC(=S)Nc1ccc(S(=O)(=O)Nc2ncccn2)cc1

An excerpt of these results, field by field.
79. N#CC1(NC(=O)CSc2nc3ncc(Cl)cc3[nH]2)CCCCC1
  VDR inh: -7%
80. Cc1cc(C)cc(NC(=O)CN2C(=O)NC(C)(c3ccccc3)C2=O)c1 (stereo not given)
  VDR inh: 2%
81. C/C(=N/NC(=O)c1ccco1)c1cccc(NC(=O)c2ccc(C)o2)c1
  VDR inh: -2%
